Assay outcomes: PubChem, several laboratories
ALR H2O2 inh = blocks human ALR sulfhydryl oxidase activity; 3.8% of 290,000 active; P55789; purified ALR, DTT oxidation, H2O2 HRP-luminol luminescence; inhibition, % (concentration not given with the values);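 active means mean and each replicate at 75% or more; inconclusive means only one of the two met; inactive means neither met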;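 further: stock transfer was 7.5 nL into about 7.5 µL; 0% = neutral wells and 100% = wells with inactivated enzyme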
Target sequence (P55789 whole entry, looked up): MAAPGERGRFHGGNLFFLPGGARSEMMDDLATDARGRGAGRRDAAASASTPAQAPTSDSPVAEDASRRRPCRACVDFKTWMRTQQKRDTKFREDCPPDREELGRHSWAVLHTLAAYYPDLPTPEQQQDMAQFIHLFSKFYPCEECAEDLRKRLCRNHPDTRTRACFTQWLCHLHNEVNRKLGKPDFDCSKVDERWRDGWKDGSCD
Vif A3G = HIV-1 Vif–A3G interaction blockers – biochemical, TR-FRET, GST-Vif 1-94, biotin-A3G peptide, dose response retest, primary screen (AID 1117319) | 0.57% of 260,000 active | one-dose inhibition, %; IC50 in µM for titrated hits | TR-FRET GST-Vif / biotin-A3G peptide binding; higher % means a stronger effect; test concentration not given here; strong numbers were not always called active;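 active means above the screen mean plus three standard deviations and confirmed in dose response; inconclusive means results disagree or hit not tested in dose response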;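 further: Vif residues 1-94 fused to GST binding biotinylated APOBEC3G peptide 110-148; 0% = full assay without inhibitor and 100% = GST in place of GST-Vif; retest series ran down from 100 µM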
E coli growth = E. coli growth inhibition | Escherichia coli growth, OD600, 23 h; active compounds read low | OD600 absorbance (test concentration not listed) | 0.21% of 330,000 active;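 active means OD600 absorbance below the run mean of sample wells minus 3.6 SD, in any replicate, cut at about 0.56 in these data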;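 further: stock transfer was 300 nL into about 60 µL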
Ecoli rRNA inh = selective bacterial rRNA inhibition in E. coli; E. coli WT GFP vs humanized-ribosome RFP mutants, fluorescence, 24 h; active compounds read low; DMSO median 0, no signal -100; GFP signal change (wild-type ribosome), % (concentration not given with the values); 1.6% of 350,000 active; AID 720706;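 active means significant combined selectivity score with lowered wild-type GFP, culture density cut under 30%, mutant RFP and density less affected; inactive means any of these conditions unmet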; further: one replicate is shown; some compounds called inactive have numbers as strong as hits
FGF22 binding = binders of recombinant human FGF22 by thermal shift. Q9HCT0. SYPRO orange fluorescence; percent of sucrose octasulfate shift, DMSO zero. calls only at 9.99 µM. 1.5% of 340,000 active;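 active means melting point raised past a set limit in the mean and every replicate; inconclusive means no clear call; three in four hits are not shown here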
Target sequence (Q9HCT0 whole entry, looked up): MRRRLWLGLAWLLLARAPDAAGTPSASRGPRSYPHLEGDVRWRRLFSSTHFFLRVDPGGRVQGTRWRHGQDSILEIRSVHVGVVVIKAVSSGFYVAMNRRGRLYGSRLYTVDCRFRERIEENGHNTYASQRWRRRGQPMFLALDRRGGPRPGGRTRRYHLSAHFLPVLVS
AF4-AF9 inh = MLL-AF4/AF9 protein interaction inhibition. P42568. AlphaScreen, biotin-AF4 peptide binding to FLAG-AF9. inhibition, % at 10 µM. 0.47% of 350,000 active;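 active means every replicate reaching a set inhibition limit, whatever the replicate mean, cut at about 25% in these data; inconclusive means mean inhibition reaches that limit but some replicates miss it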;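 further: 0% = plate neutral control median and 100% = total signal loss; the record names both 10 and 1 µM as test concentration; the first replicate is given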
Target sequence (P42568 whole entry, looked up): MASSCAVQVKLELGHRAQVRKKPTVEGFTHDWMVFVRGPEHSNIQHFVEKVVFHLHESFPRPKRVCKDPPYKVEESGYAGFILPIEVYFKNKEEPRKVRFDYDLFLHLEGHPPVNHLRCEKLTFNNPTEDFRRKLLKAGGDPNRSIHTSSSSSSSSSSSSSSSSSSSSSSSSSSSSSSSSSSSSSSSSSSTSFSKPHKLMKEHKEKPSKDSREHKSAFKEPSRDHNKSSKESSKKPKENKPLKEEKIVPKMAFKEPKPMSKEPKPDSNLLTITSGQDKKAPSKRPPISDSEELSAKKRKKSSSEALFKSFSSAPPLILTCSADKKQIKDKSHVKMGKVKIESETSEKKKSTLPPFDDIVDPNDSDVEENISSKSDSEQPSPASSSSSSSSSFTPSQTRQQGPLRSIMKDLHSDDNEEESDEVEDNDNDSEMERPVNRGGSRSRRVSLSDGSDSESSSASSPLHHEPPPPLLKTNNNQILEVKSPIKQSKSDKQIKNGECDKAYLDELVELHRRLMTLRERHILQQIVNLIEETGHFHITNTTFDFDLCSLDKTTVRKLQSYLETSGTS
HNF4A DNA FP = change in binding of human HNF4 alpha to DNA; 0.3% of 360,000 active; P41235; activity change, % at 10 µM; AID 1224865; HNF4a-FITC DNA binding, fluorescence polarization, 1 h; in the data active means activity change above about 30%, passing the limit was not always enough;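 further: controls were the assay level and a saturating level of protein; the project sought stronger binding though the title names inhibitors; some compounds called inactive have numbers as strong as hits; positive values seem to mean higher polarization but the record does not say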
Ecoli rRNA inh OD600 = further read-out of Ecoli rRNA inh, marked with its call; OD600 change, %; measured here: OD600 growth;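 optical density of the mix in the first replicate; 0 = DMSO median and -100 = no signal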
Ecoli rRNA inh RFP = second read-out of Ecoli rRNA inh, no call of its own (marks repeat the call); RFP signal change, %; measured here: RFP humanized mutant strains;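 first replicate; 0 = DMSO median and -100 = no signal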
Starred values were filed as active, the others as inactive; i = inactive; ? = inconclusive; nt = not tested or not shown; & = joins results of further samples. A portion of the library (hit frequency here may not be typical).

SMILES	ALR H2O2 inh	Vif A3G	E coli growth	Ecoli rRNA inh	Ecoli rRNA inh OD600	Ecoli rRNA inh RFP	FGF22 binding	AF4-AF9 inh	HNF4A DNA FP
O=C(COC(=O)c1ccc2c(c1)OCO2)Nc1nc(-c2ccccc2)cs1	-9	-8%	0.7	19	14	1.5	i	-3.7	4.2
C/C=C/c1ccc2c(c1)O[C@@H](CN(C)C(=O)c1cnccn1)[C@H](C)CN([C@@H](C)CO)S2(=O)=O	nt	nt	nt	-2	1	-1.2	i	-0.2	nt
OCC1(CCOc2ccccc2)CCN(Cc2ccc3c(c2)OCCO3)CC1	nt	nt	0.69	2	1	9.3	i	-2.8	-0.5
O=C(C[C@@H]1CC[C@@H](NC(=O)c2ccc(F)cc2)[C@@H](CO)O1)NCCc1ccccc1	nt	nt	nt	2	-4	1.4	i	1.3	nt
COc1ccc(-c2cc3ccccc3oc2=O)cc1NC(=O)c1ccc([N+](=O)[O-])o1	-6	-6%	0.66	nt	nt	nt	nt	nt	2.9
CCCN1CNC(=S)N(c2ccc(C)cc2C)C1	nt	30%	0.64	7	7	0.5	i	-3.5	1.4
COc1ccc2ccccc2c1/C=N/N1C(=O)CSC1=S	nt	-2%	nt	-6	10	15	i	2.2	-119
COCc1nn2c(N)c(-c3ccccc3)cnc2c1-c1ccccc1	-18	-5%	0.69	1	-1	-4.8	i	-18	3.4
CC1CCN(c2nc3ccccc3n2CC(=O)c2ccccc2)CC1	-3	nt	0.65	20	25	-1.2	i	-0.7	3.0
C[C@H]1CN([C@@H](C)CO)C(=O)Cc2cc(N(C)C)ccc2O[C@@H]1CN(C)C(=O)Nc1ccc2c(c1)OCO2	nt	nt	nt	2	4	-1.0	i	-3.4	nt
O=C(Nc1ccccc1C(=O)N1CCCC1)c1ccc(Cl)c([N+](=O)[O-])c1	-3	nt	0.64	13	11	0.3	i	0.4	1.6
COc1cc(NC(=O)c2ccc(COCC(F)(F)F)cc2)cc(OC)c1OC	-8	-2%	0.69	nt	nt	nt	nt	nt	-2.4
O=C(NCc1ccc(Cl)c(Cl)c1)C1CCCC1	-1	nt	0.66	-25	-20	-3.5	i	-0.3	-1.2
CCCCOc1c(C(=O)Nc2ccccc2)nnn1-c1ccccc1	-3	-13%	0.67	23	8	-0.5	nt	-0.4	2.4
CC1CC1c1ccc(/C=C(\C#N)C(=O)Nc2cccc(Cl)c2Cl)o1 (centres undefined)	-3	nt	0.72	16	4	11	i	0.2	1.1
Cc1ccc(C)c(-n2cc(CNCCCn3cccn3)c(-c3ccccc3)n2)c1	-1	?	0.67	0	-7	0.4	i	4.2	3.0
COc1cc(S(=O)(=O)Nc2cccc(C)c2)ccc1NC(=O)c1cccnc1	0	22%	0.7	nt	nt	nt	nt	nt	2.1
Cc1cc(NC(=O)CSc2nnc(-c3ccncc3)n2-c2ccccc2)no1	-4	0%	0.63	21	19	2.9	i	-2.2	0.9
O=C(NCCCN1CCOCC1)c1cccc(S(=O)(=O)N2CCN(c3ccccc3)CC2)c1	46	15%	0.68	11	4	-0.3	i	1.6	-3.3
O=C(NNC(=O)C1CC1)c1cc(=O)[nH]c2ccccc12	-10	-9%	0.63	16	13	3.1	i	-2.0	2.0

Single records, as listed above. Screens in order: ALR H2O2 inh | Vif A3G | E coli growth | Ecoli rRNA inh | Ecoli rRNA inh OD600 | Ecoli rRNA inh RFP | FGF22 binding | AF4-AF9 inh | HNF4A DNA FP
O=C(NCc1ccc(Cl)c(Cl)c1)C1CCCC1 is entered as -1 | nt | 0.66 | -25 | -20 | -3.5 | i | -0.3 | -1.2
Cc1cc(NC(=O)CSc2nnc(-c3ccncc3)n2-c2ccccc2)no1 is entered as -4 | 0% | 0.63 | 21 | 19 | 2.9 | i | -2.2 | 0.9
Cc1ccc(C)c(-n2cc(CNCCCn3cccn3)c(-c3ccccc3)n2)c1 is entered as -1 | ? | 0.67 | 0 | -7 | 0.4 | i | 4.2 | 3.0

The listing continues:
SMILES	ALR H2O2 inh	Vif A3G	E coli growth	Ecoli rRNA inh	Ecoli rRNA inh OD600	Ecoli rRNA inh RFP	FGF22 binding	AF4-AF9 inh	HNF4A DNA FP
CCCCCCN1CCN(C2CN(Cc3cn(CCCC(=O)OC)nn3)S(=O)(=O)C2)CC1 (centres undefined)	nt	nt	nt	6	10	-3.5	i	-2.8	2.6
CCOC(=O)c1c(C)[nH]c(C)c1C(=O)COC(=O)c1ccc([N+](=O)[O-])s1	-22	nt	0.65	-9	-4	2.7	i	8.3	-2.9
CS(=O)(=O)Nc1ccc2c(c1)[C@@H]1C[C@H](CC(=O)NC3CCCC3)O[C@@H](CO)[C@@H]1O2	nt	nt	nt	2	5	0.9	i	2.3	nt
CN1c2ccc(-c3cccc(C#N)c3)cc2[C@@H]2[C@@H](CCN2S(=O)(=O)c2ccccc2F)[C@H]1CO	nt	nt	nt	-5	-11	-4.7	i	-7.6	nt
CCOc1ccc(CCNC(=O)C2CC(=O)N(Cc3ccc(OC)cc3)C2)cc1OCC (centres undefined)	-11	nt	0.73	6	4	-0.6	i	2.0	1.5
CCOC(=O)C1CCCN(C(=S)Nc2ccc(Nc3ccccc3)cc2)C1 (centres undefined)	97*	nt	0.69	-30*	-24*	-1.5*	i	8.4	-2.6
CC(c1n[nH]c(=S)n1-c1ccc(F)cc1)N1CCCCC1 (centres undefined)	91*	nt	0.7	5	-6	-3.3	i	-7.6	-1.1
Cc1nc2nc[nH]n2c(=O)c1CC(=O)O	-6	16%	0.66	13	8	3.2	nt	nt	2.1
O=C(N[C@H]1CC[C@@H](CCNC(=O)C2CCC2)O[C@@H]1CO)c1ccccn1	nt	nt	nt	3	5	-1.6	i	1.6	nt
CCc1ccc(N2C(=O)CC(Cn3nc(C)cc3C)C2=O)cc1 (centres undefined)	-3	0%	0.62	7	7	1.9	i	1.5	-4.1
Cc1cc(=O)c2ccc(C(F)(F)F)cc2[nH]1	-3	4%	0.64	28	-6	5.3	i	nt	-0.7
COCCn1c(C)cc(/C=C2\NC(=S)N(C)C2=O)c1C	7	nt	0.72	7	4	4.6	i	3.8	-6.7
COC(=O)c1nn(-c2ccc3c(c2)CCN3C(C)=O)cc1O	52	-2%	0.65	nt	nt	nt	nt	nt	-3.3
Cc1c(NC(=O)c2cccc(NS(C)(=O)=O)c2)c(=O)n(-c2ccccc2)n1C	-8	-5%	0.68	7	9	1.9	i	0.6	-2.6
CCCC(=O)Nc1ccc2c(c1)OC[C@H](C)N(C(C)=O)C[C@@H](C)[C@@H](OC)CN(C)C2=O	nt	nt	nt	0	3	-1.4	i	0.4	nt
CCCCc1nc2cc(C(=O)N3CCCC(OCCC)C3)ccc2o1 (centres undefined)	-3	nt	0.68	0	2	-1.9	i	-5.2	7.2
C/C(CC(=O)N(C(C)C)C(C)C)=N\NC(=O)COc1ccc(Cl)cc1Cl	3	nt	nt	3	9	5.8	i	0.2	-4.2
O=C(OCn1nnc2ccccc2c1=O)c1cn(-c2ccccc2)nc1-c1cccnc1	-6	1%	0.78	nt	nt	nt	nt	nt	6.1
Cc1ccc(-c2noc(CCC(=O)N(C)c3ccccc3C)n2)cc1	-2	19%	0.69	nt	nt	nt	nt	nt	0.5
CCC(CC)c1nnc(NC(=O)CSCC(=O)Nc2cc(C)on2)s1	0	-4%	0.69	6	5	0.6	i	3.4	-0.4
CCCN1[C@@H]2c3ccc(C4=CCCC4)c(=O)n3C[C@@H]2[C@@H](CO)[C@@H]1C(=O)NCc1ccccn1	nt	nt	nt	3	11	4.6	i	0.2	nt
O=C1CC(c2ccccc2)=C(c2ccccc2)C1	nt	-7%	0.67	-12	-44	-11	i	-0.2	0.4
CCCCCC(=O)N1C[C@H](n2cc(COC(=O)c3ccccc3)nn2)[C@@H](O)C[C@@H]1c1ccc(OC)cc1	nt	nt	nt	-7	-12	4.8	i	2.2	1.1
O=C(Nc1ccc2c(c1)OCO2)N1CCN(c2ccccc2Cl)CC1	-2	-1%	0.64	nt	nt	nt	nt	nt	3.5
O=C(NC(=S)NC1CCS(=O)(=O)C1)c1cccs1 (centres undefined)	40	-12%	0.72	5	-6	-1.4	i	-1.2	-0.5
N#Cc1cccc2cccc(S(=O)(=O)N3CCOCC3)c12	nt	3%	0.66	4	5	-2.5	i	-2.7	1.2
COc1cc([N+](=O)[O-])cc(/C=N/NC(=O)c2ccc(C)nc2)c1O	-10	29%	nt	nt	nt	nt	nt	nt	-0.7
O=C(N/N=C/C=C/c1ccccc1)c1cnccn1	-5	11%	nt	nt	nt	nt	nt	nt	-2.9
c1ccc(Cc2noc(CN3CCC(CN4CCOCC4)CC3)n2)cc1	-2	-1%	0.68	5	12	0.6	i	2.1	0.5
CCOc1ccc(NC(=O)CC2C(=O)N(c3ccc(OC)cc3)C(=O)N2Cc2ccc(OC)cc2)cc1 (centres undefined)	-4	-10%	0.8	2	-3	-1.4	i	-3.5	1.0
CC(C)c1ccc(OCC(=O)N(c2ccccn2)C2CCCCC2)cc1	-13	2%	0.66	nt	nt	nt	nt	nt	-1.1
CC(C)(C)c1nnc(NS(=O)(=O)c2ccc([N+](=O)[O-])cc2)s1	22	nt	0.67	5	12	-1.8	i	-3.1	-2.9
O=C(CSc1nnnn1-c1cccnc1)Nc1cccc(Cl)c1	-3	nt	0.67	1	1	-2.2	i	-4.2	0.2
CCN1C(=O)/C(=C\N(C)C)c2ccccc21	nt	3%	0.68	nt	nt	nt	nt	nt	-1.7
COCCCNC(=O)CN(c1ccc(OC)cc1)S(=O)(=O)c1ccc(NC(C)=O)cc1	-13	29%	0.67	nt	nt	nt	nt	nt	2.5
C[C@H](CO)N1C[C@H](C)[C@@H](CN(C)C(=O)Cc2ccccc2)OCCCC[C@H](C)Oc2ccc(NC(=O)NC3CCCCC3)cc2C1=O	nt	nt	nt	1&-3	4&-5	6.3&4.9	i	-1.8	-6.2
Cc1ccc(/C=N/N2CCOCC2)s1	nt	0%	nt	8	13	1.4	i	-7.2	-2.1
Cn1c(N)c(C(=O)COC(=O)COc2ccccc2Cl)c(=O)n(C)c1=O	nt	1%	0.64	-2	4	-0.2	i	-16	3.5
CCc1c(C#N)c(N)nc(SCC(=O)OCc2ccccc2)c1C#N	-2	0%	0.7	nt	nt	nt	nt	nt	-0.7
COc1ccc(Cc2nnc(NC(=O)c3ccc(OC)c(OC)c3)s2)cc1	-7	-8%	nt	-1	3	-1.1	i	2.9	1.9

The list goes on; the last 2 above are carried over.
SMILES	ALR H2O2 inh	Vif A3G	E coli growth	Ecoli rRNA inh	Ecoli rRNA inh OD600	Ecoli rRNA inh RFP	FGF22 binding	AF4-AF9 inh	HNF4A DNA FP
CCc1c(C#N)c(N)nc(SCC(=O)OCc2ccccc2)c1C#N	-2	0%	0.7	nt	nt	nt	nt	nt	-0.7
COc1ccc(Cc2nnc(NC(=O)c3ccc(OC)c(OC)c3)s2)cc1	-7	-8%	nt	-1	3	-1.1	i	2.9	1.9
CCSc1nnc(NC(=O)C2CSC3(C)CCC(=O)N23)s1 (centres undefined)	nt	nt	0.65	4	-4	-1.9	i	-0.8	-1.4
COCCNC(=O)CNS(=O)(=O)c1ccc2nc(C)sc2c1	-5	-1%	0.68	nt	nt	nt	nt	nt	-1.1
COc1ccc(C2C3=C(CC(C)(C)CC3=O)Oc3ncn(Cc4ccccc4)c(=N)c32)cc1 (centres undefined)	-2	-28%	0.72	nt	nt	nt	nt	nt	1.2
O=C(C[C@@H]1CC[C@H](NC(=O)Nc2cc(F)ccc2F)[C@@H](CO)O1)NCc1ccc2c(c1)OCO2	nt	nt	nt	-4	-7	-1.1	i	-15	nt
O=C1CC(c2cccc(Br)c2)C2=C(COC2=O)N1 (centres undefined)	0	3%	0.7	5	14	6.7	i	6.6	1.3
